SARS PLP yeast: qHTS of Yeast-based Assay for SARS-CoV PLP | Potency, µM (highest dose often 32.9 µM), for inactives: at the top dose activity, positive = growth rescue | 0.19% of 330,000 active | S. cerevisiae expressing SARS-CoV PLpro, growth rescue; control for the full effect not named in the record; further: 0% is about no effect; nearly all actives have a fitted effect of over 55% in size; growth read by luminescence after 48 h
StopGo reporter: High Throughput Screening for Foot and Mouth Disease Virus Antivirals; Potency, µM (titrated, usually from 57.9 µM), for inactives: top-dose signal change, negative = less light; human cells with a luciferase reporter of 2A StopGo recoding; control for the full effect not named in the record; 1.2% of 410,000 active; AID 1159524, 2015; active = well fitted falling curve with a large enough effect; inconclusive = small, poorly fitted or top-dose-only effect; inactive = no such curve, though single readings can be large or run the other way; tested in HEK293T cells; further: on the % scale 0 is the no-effect control and ±100 the full control effect; nearly all actives have a fitted effect of over 45% in size; luciferase light after 4 h
RE007 growth inh: qHTS Assay for Inhibitors of the HIV-1 protein Vpr | S. pombe RE007 Vpr strain, BacTiter-Glo ATP luminescence, 24 h; control for the full effect not named in the record | Potency, µM (highest dose often 92.2 µM), for inactives: top-dose activity change, negative = less growth | 0.21% of 360,000 active | AID 651644, 2012; active = well fitted falling curve with a large enough effect; inconclusive = small, poorly fitted or top-dose-only effect; inactive = no such curve, though single readings can be large or run the other way;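 further: on the % scale 0 is the no-effect control and ±100 the full control effect; nearly all actives have a fitted effect of over 50% in size; the assay follows cell death caused by Vpr and the record does not say whether a fall means rescue or toxicity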
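Fission yeast strain RE007, carrying one chromosomally integrated HIV-1 vpr copy, was seeded at OD 0.01 in PMG+AL medium with 23 nL pinned compound. After 24 h at 30 °C and 99% humidity, viability was read by BacTiter-Glo luminescence.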
Cruzain inh noDet: qHTS Assay for Promiscuous and Specific Inhibitors of Cruzain (without detergent) | Cruzipain (Trypanosoma cruzi), P25779 | purified cruzain, Z-FR-AMC fluorescence, no detergent | Potency, µM, for the others: max response, negative = inhibition, usual class: inhibitors | 2.3% of 200,000 active; active means well fitted curve in the direction sought with a large enough effect; inconclusive means small, poorly fitted or top-dose-only effect, or another doubt; inactive means no such curve, though single readings can be large; an effect the other way counts as inactive or inconclusive;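 further: plate controls were enzyme without inhibitor for no effect and buffer without enzyme for full effect; nearly all actives have a fitted effect of over 40% in size; top concentration of the series not given in the record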
Target sequence (P25779 123-467 limits assumed): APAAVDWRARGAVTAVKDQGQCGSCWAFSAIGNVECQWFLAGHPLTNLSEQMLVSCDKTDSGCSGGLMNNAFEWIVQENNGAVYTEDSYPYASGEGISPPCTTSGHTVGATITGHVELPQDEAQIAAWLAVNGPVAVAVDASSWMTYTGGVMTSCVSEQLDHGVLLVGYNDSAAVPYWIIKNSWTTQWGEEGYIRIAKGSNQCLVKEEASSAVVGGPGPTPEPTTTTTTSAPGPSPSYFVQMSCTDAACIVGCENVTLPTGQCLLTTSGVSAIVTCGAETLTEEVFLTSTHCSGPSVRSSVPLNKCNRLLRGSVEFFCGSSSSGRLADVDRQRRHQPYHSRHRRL
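Purified cruzain at 1.5 nM, pre-incubated 15 min with compound at room temperature in 100 mM sodium acetate pH 5.5, 5 mM DTT, 0.00005% Triton X-100. Reaction started with 2 uM Z-FR-AMC; AMC fluorescence increase over 60 s gives rate.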
NS1 function inh: qHTS Assay for Inhibitors of Influenza NS1 Protein Function; AID 2326, 2010; 0.4% of 270,000 active; S. cerevisiae slowed by influenza A NS1, growth recovery by OD600; Potency, µM (top dose mostly 46.1 µM), for the others: top-dose activity, positive = more growth; further: actives are rising curves; nearly all actives have a fitted effect of over 50% in size
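S. cerevisiae expressing influenza A NS1, grown in glucose, washed, then diluted 1:100 into pH 6.0 -URA galactose medium with 23 nl compound. Growth recovery read as OD600; NS1-free strain serves as control.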
Cruzain Triton: qHTS Assay for Promiscuous and Specific Inhibitors of Cruzain (with detergent); 0.43% of 200,000 active; Potency, µM, without a hit: max response, negative = inhibition, most hits filed as inhibitors; AID 1478, 2009; purified cruzain, Z-FR-AMC fluorescence, 0.01% Triton; Cruzipain (Trypanosoma cruzi), P25779; active means well fitted curve in the direction sought with a large enough effect; inconclusive means small, poorly fitted or top-dose-only effect, or another doubt; inactive means no such curve, though single readings can be large; an effect the other way counts as inactive or inconclusive;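 further: plate controls were neutral wells for no effect and buffer without enzyme for full effect; nearly all actives have a fitted effect of over 40% in size; top concentration of the series not given in the record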
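15 min RT preincubation of 1.5 nM cruzain with compound, then 2 uM Z-FR-AMC added; kinetic AMC fluorescence, 60 s delta. Triton X-100 0.01%, pH 5.5.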
Lassa entry inh: qHTS for Inhibitors of binding or entry into cells for Lassa Virus | Lassa virus pseudotype entry inhibition, cell reporter; control for the full effect not named in the record | Potency, µM (series often up to 37.9 µM), without a hit: top-dose activity change, negative = inhibition, most hits filed as inhibitors | 1.2% of 300,000 active; active means well fitted inhibition curve with a large enough effect; inconclusive means small, poorly fitted or top-dose-only effect, or effect the other way; inactive means flat fitted curve, though single readings scatter; tested in HEK293 cells; further: on the % scale 0 is the no-effect control and ±100 the full control effect; nearly all actives have a fitted effect of over 50% in size; luciferase read-out
MARV entry inh: qHTS for inhibitors of binding or entry into cells for Marburg Virus; Marburg virus pseudotyped entry inhibition, cell reporter; control for the full effect not named in the record; about a third of the inactives were read at about 46 µM; Potency, µM (highest dose often 37.8 µM), without a hit: at the top dose activity change, negative = inhibition, most hits filed as inhibitors; 1.8% of 300,000 active; AID 540276, 2011; active = well fitted inhibition curve with a large enough effect; inconclusive = small, poorly fitted or top-dose-only effect, or effect the other way; inactive = flat fitted curve, though single readings scatter; tested in HEK293 cells; about a fifth of its hits are not listed in these tables; further: on the % scale 0 is the no-effect control and ±100 the full control effect; luciferase read-out
The depositor's hits bear a star; ? = inconclusive; nt = not tested or not shown; [ ] = another dose, or the depositor's remark. Unless noted, the call rests on the fitted dose curve; in most records, active means well fitted rising curve with a large enough effect; inconclusive means small, poorly fitted or top-dose-only effect; inactive means no such curve, though single readings can be large or run the other way. Potency means the concentration at half of the fitted maximal effect.

| SMILES | Cruzain Triton | MARV entry inh | Cruzain inh noDet | Lassa entry inh | RE007 growth inh | SARS PLP yeast | StopGo reporter | NS1 function inh |
| --- | --- | --- | --- | --- | --- | --- | --- | --- |
| Cn1ccnc1SCC(=O)NC1(C#N)CCCCC1 | nt | -9.2%[46.1 µM] | nt | 5.2% | -10.6% | -1.9% | 1.3% | nt |
| CCCC(=O)N(c1ccc(C(=O)O)cc1)c1nc(-c2ccccc2)c(C)s1 | nt | nt | nt | nt | 17.0% | -0.6% | -6.6% | 2.2% |
| O=C(CN1C(=O)COc2ccc(Cl)cc21)Nc1ccc(F)cc1 | -5.1% | -18.0%[46.1 µM] | 1.9% | -5.2%[46.1 µM] | nt | nt | -9.8% | nt |
| CCCCCc1c(C)nc(N2CCN(Cc3ccc4c(c3)OCO4)CC2)[nH]c1=O | nt | nt | nt | nt | -7.5% | 1.0% | -26.7% | 2.9% |
| CCc1nn(CC(=O)NC2CCN(Cc3ccccc3)CC2)c(=O)c2cc3cc(F)ccc3n12 | nt | nt | nt | nt | -4.3% | 5.7% | 0.0% | -9.7% |
| O=C(c1cc(C2CC2)nn1-c1ccccc1)N1CCN(c2ccccn2)CC1 | nt | -0.3% | nt | ? | -1.7% | 3.3% | -16.6% | nt |
| CCN(CC)S(=O)(=O)c1cccc(C(=O)NCCc2ccccc2)c1 | nt | ? | nt | -7.7% | 14.6% | nt | 15.7% | nt |
| CC(=O)N1N=C(c2ccc(C)cc2)CC1c1ccco1 (stereo not drawn) | nt | ? | nt | -12.0%[46.1 µM] | 0.5% | -2.1% | 29.2% | -7.7% |
| Cc1ccc2nc(SCC(=O)c3ccc(Cl)cc3)nc(=O)n2c1 | nt | 1.2% | nt | -24.6% | 1.1% | -4.8% | 7.4% | nt |
| CCOC(=O)c1ccc(-c2ccc(-c3cc(=O)oc4cc(OC)c(OC)c(OC)c34)cc2)cc1 | -0.3% | nt | -13.7% | nt | -12.4% | 15.8% | 0.0% | nt |
| COc1ccc(C(=O)N2CCN(c3nc4cc(C)ccc4cc3C#N)CC2)c(OC)c1 | -7.3% | ? | ? | ? | 33.6% | -4.5% | ? | -39.4% |
| CCC(C)NC(=O)c1[nH]c(C)c(C(=O)OC)c1C (stereo not drawn) | -1.9% | -10.9% | -9.0% | 5.0% | 12.0% | -10.0% | -5.3% | -1.5% |
| CCc1ccccc1N1C(=O)C(Cl)=C(N2CCOCC2)C1=O | nt | nt | nt | nt | 6.3% | 2.4% | -14.6% | 0.9% |
| CCc1cccc(NC(=O)CN(C)S(=O)(=O)c2ccc3c(c2)CCCN3C(C)=O)c1 | -1.6% | nt | 0.8% | -14.1%[46.1 µM] | nt | nt | -15.7% | nt |
| COc1ccc(-n2c(=O)c3c4c(sc3n(Cc3ccc(C)cc3C)c2=O)CCC4)c(OC)c1 | -4.8% | 8.0%[46.1 µM] | 7.4% | -6.4%[46.1 µM] | nt | nt | -14.3% | nt |
| O=C(Nc1ccccn1)c1nc(-c2ccccc2)n(-c2ccccc2)n1 | -24.0% | 13.9% | -12.6% | ? | 11.2% | 3.2% | -14.7% | 6.2% |
| CC(Oc1ccc(C#N)cc1)C(=O)N1CC=C(c2ccccc2)CC1 (stereo not drawn) | nt | ? | nt | -29.3%[46.1 µM] | -11.5% | -9.3% | ? | nt |
| COc1cc(CCC(=O)N2CCN(c3ncccn3)CC2)cc(OC)c1OC | nt | 1.3%[46.1 µM] | nt | 16.0%[46.1 µM] | -17.6% | 4.0% | -13.4% | nt |
| Cc1ccc(C)c(COC(=O)CCN=C2NS(=O)(=O)c3ccccc32)c1 | nt | 10.1% | nt | 3.3% | 25.7% | -2.6% | 8.4% | nt |
| O=C(Nc1ccccc1C(=O)Nc1cccnc1)c1ccccc1 | nt | ? | nt | 6.6% | -1.5% | -0.2% | 0.0% | -4.0% |
| O=C(CN1CCOCC1)N/N=C/c1cccc2ccccc12 | nt | ? | nt | -8.4% | 10.8% | 6.2% | 14.1% | 10.9% |
| Cc1cc(C)cc(OCC(=O)Nc2ccncc2)c1 | nt | ? | nt | -25.9%[46.1 µM] | -14.9% | -1.0% | -22.5% | -16.2% |
| COc1ccccc1CNS(=O)(=O)c1cc(Br)cc2c1N(C(=O)C1CC1)CC2 | -2.4% | -23.9%[46.1 µM] | 8.8% | -5.3%[46.1 µM] | nt | nt | 27.6% | nt |
| O=C(O)C/C(=C\c1ccc(Cl)cc1)c1nc2ccccc2o1 | nt | 23.6%[46.1 µM] | nt | -4.0% | -6.7% | -1.1% | 1.9% | -5.9% |
| COC(=O)CNC(=O)c1cc(-c2ccncc2)nc2c(C)c(Cl)ccc12 | nt | -9.4%[46.1 µM] | nt | 3.1% | -10.2% | -3.3% | -14.7% | -4.7% |
| CCOc1ccc(CCNC(=O)C(C)n2nc(C)c3c(C)n(-c4ccccc4)nc3c2=O)cc1 (stereo not drawn) | nt | -17.9%[46.1 µM] | nt | -10.6%[46.1 µM] | 11.6% | ? | -17.9% | 0.1% |
| Cc1ccc(C(=O)CSc2nc3ccccc3c(=O)n2-c2ccccc2)s1 | 0.9% | -8.5% | 13.1% | -21.7% | -20.0% | 7.6% | -18.7% | 1.7% |
| CCOc1ccc(NC(=O)Cn2ncc3c2-c2cc(C)ccc2OC3)cc1 | -2.7% | -19.4%[46.1 µM] | 10.3% | nt | nt | nt | -20.8% | nt |
| O=C(NCCCN1CCCC1=O)C(=O)NCC1OCCCN1S(=O)(=O)c1cc(F)ccc1F (stereo not drawn) | nt | 19.1% | nt | 3.3% | 2.0% | -6.0% | -1.1% | 9.5% |
| O=C1C(C2=C(O)c3ccccc3C2=O)=Nc2ccccc21 | -7.7% | ? | ? | ? | ? | -14.7% | 23.8% | -34.5% |
| OCCC1CN(Cc2cccc3nccnc23)CCN1Cc1ccc(F)c(F)c1 (stereo not drawn) | nt | -5.0%[46.1 µM] | nt | 7.3% | -3.0% | -0.6% | -16.9% | -1.2% |
| O=C(Nc1ccc(C(=O)OCc2cc(=O)n3c4c(sc3n2)CCCC4)cc1)c1ccc(Cl)cc1 | 1.6% | nt | -1.4% | ? | nt | nt | -4.7% | nt |
| COCCNC(=O)CN1C(=O)CCn2nc(-c3cn(C)c4ccccc34)cc21 | -1.0% | nt | -11.1% | 26.8%[46.1 µM] | nt | nt | 6.2% | nt |
| COc1ccc(Cl)cc1C(=O)Nc1nnc2n1CCS2 | 0.3% | nt | -0.5% | 13.2%[46.1 µM] | nt | nt | -6.8% | nt |
| CCOc1ccc(CNS(=O)(=O)c2ccc(-c3cc(C(F)(F)F)on3)s2)cc1 | 0.4% | nt | -18.5% | 28.5%[46.1 µM] | nt | nt | -8.4% | nt |
| CCOc1ccc(OCC(=O)Nc2c(C(=O)Nc3ccc(C)cc3)oc3ccccc23)cc1 | -1.1% | -1.1%[46.1 µM] | -8.2% | -6.1%[46.1 µM] | nt | nt | 14.7% | nt |
| CCN(Cc1cnn(C)c1)Cc1nc(C(c2ccccc2)c2ccccc2)no1 | nt | nt | nt | nt | 13.7% | 1.7% | -19.9% | -46.2% |
| CCOC(=O)N/N=C\c1ccc(OC(=O)c2ccco2)cc1 | nt | 9.0%[46.1 µM] | nt | 2.8% | 7.3% | 0.7% | 8.0% | nt |
| COc1ccc(/C=N/NC(=O)COc2cccc3ccccc23)c(C(=O)O)c1OC | -4.7% | ? | 14.8% | 0.3% | 0.7% | -16.4% | -14.7% | ? |
| Cn1c(=O)c2c(ncn2Cc2cccc(Cl)c2)n(C)c1=O | -1.8% | ? | 8.5% | -7.7% | 10.6% | 7.4% | nt | 14.1% |
| CCOC(=O)NC(=O)c1cn(-c2ccc(OC)cc2)c(=O)[nH]c1=O | nt | nt | nt | nt | -4.6% | 1.6% | -10.9% | 4.4% |
| N#Cc1cc2c(nc1SCc1ccccc1)CCCC2 | -0.2% | 0.0% | ? | 0.3% | -2.3% | 0.8% | 5.6% | -4.7% |
| O=[N+]([O-])c1ccc2c(c1)nc1n2CCSC1 | nt | 22.4% | nt | -1.0% | 2.5% | -3.0% | -5.0% | 1.7% |
| COc1cccc(-c2nnc(SCC3CNC(=O)O3)n2-c2ccc(Cl)cc2)c1 (stereo not drawn) | -1.3% | 15.4% | -6.5% | -4.2% | -10.5% | 5.4% | -29.3% | 4.9% |
| C=CCn1c(CCNC(=O)c2cccs2)n[nH]c1=S | 1.0% | 0.8% | 7.6% | 6.4% | 0.3% | 2.2% | -2.5% | 17.7% |
| COc1ccccc1CCC(=O)Nc1ccc2c(c1)CN(Cc1ccc(C)o1)CC2 | nt | ? | nt | -23.8%[46.1 µM] | -3.0% | 5.0% | -21.5% | 20.1% |
| N#Cc1ccccc1NC(=O)C(=O)NCCc1csc(-c2ccc(F)cc2)n1 | -0.9% | nt | -1.3% | -6.0%[46.1 µM] | nt | 2.6% | -11.5% | nt |
| O=C1CNC(=S)N1C(CO)c1ccccc1 (stereo not drawn) | nt | -1.7%[46.1 µM] | nt | 17.5%[46.1 µM] | -8.3% | -0.3% | -9.6% | 8.4% |
| c1ccc(NN=C2c3ccccc3-c3ccccc32)cc1 | nt | -8.2%[46.1 µM] | nt | 3.9%[46.1 µM] | -16.3% | nt | 6.7% | nt |
| Cc1cc(C)nc(SCC(=O)N/N=C/c2cccn2-c2ccc(O)cc2)n1 | -0.2% | 3.3% | 0.4% | -0.7% | 2.1% | 17.8% | -16.6% | -1.0% |
| CCOc1ccc(NC(=O)N2CCN(c3ccc(Cl)c(Cl)c3)CC2)cc1 | -1.3% | -1.9%[46.1 µM] | 1.1% | -12.6%[46.1 µM] | nt | nt | -11.3% | nt |

Copied from the list.
CCc1ccccc1N1C(=O)C(Cl)=C(N2CCOCC2)C1=O @ SARS PLP yeast: 2.4%
COc1ccc(/C=N/NC(=O)COc2cccc3ccccc23)c(C(=O)O)c1OC @ Cruzain Triton: -4.7%
